S aureus helic: S. aureus DNA helicase inhibition; purified S. aureus helicase, fluorescence unwinding assay; about half of the hits fall short of the stated cut; inhibition, %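 (tested at about 80 µM)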; 120,000 tested, 0.05% active; AID 485395;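 active = both duplicates at 50% or more, or one of them with a favoured structure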;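 note: 0% = mean of negative control wells and 100% = mean of positive control wells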
MgrA DNA FP: modulators of Staphylococcus aureus MgrA DNA binding | fluorescence polarization | 84,000 tested, 0.13% active | inhibition, %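 (about 10 µg/mL by stock and volumes)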;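 active = above 50% in either of two replicates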;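 note: 0% = protein plus DNA without compound and 100% = DNA alone without protein; higher means less MgrA bound to DNA so lower polarization; one replicate is shown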
Starred values were filed as active, the others as inactive; . = not tested or not shown. These rows are one share of the data; the hit share may differ from the screen's.

Structure	S aureus helic	MgrA DNA FP
CCN(CC)c1ncnc2c1[nH]c1ccccc12	11	.
Cc1ccc2cc3cc(C(=O)N(C)C4CCCCC4)oc3nc2c1	3	.
O=C(c1cccnc1Nc1ccccc1F)N1CCCCC1	-11	0.5
O=C(CSc1n[nH]c(=O)n1C1CC1)c1ccc(F)cc1	.	1.5
O=C(O)c1ccccc1COc1ccccc1Cl	6	-1.4
O=C1NC(=Nc2ccccc2)c2ccccc21	-4	-2.0
O=C(O)c1ccc(CNCc2ccc(F)cc2)s1	20	.
COc1cc(C2c3c(oc4ccccc4c3=O)C(=O)N2CCCOC(C)C)cc(Br)c1O (stereo unspecified)	2	0.8
O=C(Nc1ccc2nc(CN3CCCCC3)[nH]c2c1)c1cccs1	20	-1.0
COc1ccc(C2=NN(C(C)=O)C(c3ccccc3)C2)cc1OC (stereo unspecified)	4	0.8
C#CCn1c(C(C)Oc2ccccc2)nc2ccccc21 (stereo unspecified)	-3	1.1
CCCCn1c(=O)c(C#N)cc2c(=O)n3ccccc3nc21	16	-1.1
COc1cc(SC)ccc1C(=O)NC1CC1	-9	-0.2
CCOC(=O)c1oc2ccccc2c1COC(=O)c1cccs1	-3	.
Cc1cc(C)cc(C(=O)NCCCN2CCOCC2)c1	-10	-1.9
CCOC(=O)NC(=S)N1CCCC1	.	3.0
Cc1cccc(NC(=O)c2cc3ccccc3oc2=O)c1	-13	1.4
CN(C)NC(=S)NC1CCS(=O)(=O)C1 (stereo unspecified)	23	.
N#C/C(=C/N1CCOCC1)c1ccccc1	0	.
CCOC(=O)c1cc2c(N3CCOCC3)nccc2nc1C(F)(F)F	.	-1.9
C=CCSc1nc2c(c(=O)[nH]1)C(c1ccncc1)C(C(=O)OC)=C(C)N2 (stereo unspecified)	-7	.
Cc1cc(=O)n2c(c1C#N)SC1CCCCC12O (stereo unspecified)	-11	.
Cc1ccc(C(=O)NC2CCCCNC2=O)cc1C (stereo unspecified)	6	.
Cc1c(OCc2ccc(Cl)c(Cl)c2)ccc(C(=O)/C=C/N(C)C)c1O	.	-2.4
CC1=C(OC(=O)c2c(-c3c(Cl)cccc3Cl)noc2C)C(=O)CC1	.	1.0
O=C(NCc1csc2ccccc12)C1CCCCC1	.	-2.5
CC(=O)O[C@H]1C[C@@]2(C)[C@@H](C[C@@H](O)C3[C@]2(C)CC[C@H]2[C@H](C)[C@H](O)CC[C@]32C)/C1=C(/CCC=C(C)C)C(=O)O (stereo partly specified)	.	5.7
Cc1csc(N(C(=O)C2CCC2)c2ccccc2)n1	1	.
CC(C)CN1C(=O)CSC1c1cn(-c2ccccc2)nc1-c1cc2ccccc2o1 (stereo unspecified)	-13	.
CCNc1nc(=S)nc(NCc2ccccc2)[nH]1	4	2.4
O=C(N/N=C/c1ccc(Br)s1)C1CC12CCC2 (stereo unspecified)	9	-2.4
Cc1noc(C)c1COc1ccc(C(=O)OC(C)C(=O)Nc2ccc(S(=O)(=O)N3CCOCC3)cc2)cc1 (stereo unspecified)	-6	.
CC(C)CCN1C(=O)CC(N2CCN(S(=O)(=O)c3cccc(Br)c3)CC2)C1=O (stereo unspecified)	-15	.
CCOC(=O)C1=C(C)NC(C)=CC1=C(C#N)C#N	6	.
COc1ccc(Cn2cc(-c3ccccc3)nn2)cc1	-4	1.4
CC(=O)Nc1ccc2c(CSc3nnc(-c4ccoc4C)n3-c3ccccc3)cc(=O)oc2c1	17	.
CC(=O)NC(=S)Nc1cccc(C)c1	7	.
Cc1ccc(C(=O)NC2CCOc3ccccc32)o1 (stereo unspecified)	7	.
Cc1cc(Nc2ncc(Cl)cc2Cl)n[nH]1	2	.
CC(=O)n1c(C=NCc2ccccc2)c(O)c2ccccc21	7	1.4
N#Cc1c(NC(=O)CN2C(=O)C3CC=C(Cl)CC3C2=O)sc2c1CCC2 (stereo unspecified)	4	.
Cc1ccc(-n2nc3c4ccccc4n(C)c3cc2=O)cc1	14	.
CC(C)(CO)NS(=O)(=O)c1csc(C(=O)Nc2ccccc2)c1	24	0.3
COc1ccc(CSCC(=O)NCCN2CCOCC2)cc1	-1	-0.3
Cc1ccnc(NC(=O)C2CCCCC2)c1	6	.
NC(=O)c1ccc(-c2csnn2)cc1	.	2.3
COc1cccc(NC2=Nc3cccc4cccc2c34)c1	1	6.0
CC(=O)Nc1ccc(NC(=O)c2ccccc2OC(C)=O)cc1	-19	.
CC1(C)CC(CC(=O)O)(c2ccccc2)CCO1 (stereo unspecified)	-5	.
Cc1nc2cc3c(cc2n1CC(=O)NCC(F)(F)F)OCCO3	-11	.
Cn1ccnc1C(=O)c1cccs1	26	-3.5
CC1(C)CC(=O)C=C(Nc2ccccc2F)C1	9	-3.8
COc1ccc(/C=C/C(=O)NCC2(c3ccccc3)CCOCC2)cc1	4	0.8
COc1ccc(CNC(=O)CN2CCN(Cc3ccccc3)C2=O)cc1	37	.
O=S(=O)(c1ccccc1)c1nnn2c1nc(NC1CCCC1)c1sccc12	29	.
O=C(O)c1nc(-c2ccccc2)cc(-c2ccccc2)n1	-11	3.1
CCCn1c(=S)[nH]c2cc(C(=O)N3CC(C)CC(C)C3)ccc2c1=O (stereo unspecified)	8	0.8
CC(OC(=O)Cc1c[nH]c2ccccc12)C(=O)N1CCc2ccccc21 (stereo unspecified)	-6	.
CCCCn1nnnc1CSCC(=O)Nc1ccc2c(c1)OCCO2	-8	.
COc1ccc(OCC(O)CN(Cc2ccccc2)Cc2ccccc2)cc1 (stereo unspecified)	-5	1.9

(list continues)
Structure	S aureus helic	MgrA DNA FP
COc1ccc(C(CCN2C(=O)CCC2=O)C2CCOC(C)(C)C2)cc1 (stereo unspecified)	7	0.7
O=C(N=C=S)c1ccc2ccccc2c1	1	.
Cc1cc(C)nc(SCC(=O)c2ccc3c(c2)OCCO3)n1	1	3.5
O=C(Nc1ccccc1N1CCOCC1)c1ccccc1	.	-1.9
c1cnc(NCC2COc3ccccc3O2)nc1 (stereo unspecified)	-10	.
O=C(Nc1nccs1)c1cccc(C(=O)Nc2nccs2)c1	1	-3.0
Cc1nc2ncnn2c(C)c1Cc1cccc(C(F)(F)F)c1	.	-2.0
COc1ccc(NC(=S)N2CCC(c3nc4ccccc4o3)CC2)c(OC)c1	3	-1.1
COc1ccc2[nH]c(C(=O)NCc3ccccc3)cc2c1	.	-0.8
O=C(O)CC(C(=O)Nc1ccc2ccccc2c1)N1CCOCC1 (stereo unspecified)	-12	.
O=C(COc1ccc(Cl)cc1)Nc1ncc(S(=O)(=O)c2ccc([N+](=O)[O-])cc2)s1	.	3.7
CC1(C)SC(C(=O)O)NC1C(=O)O (stereo unspecified)	.	-0.4
O/N=C(\Cc1ncc[nH]1)c1ccccc1	-8	.
COc1cc(C)c(S(=O)(=O)Nc2ccc3nc(C)sc3c2)cc1C(C)C	-1	-1.7
O=C(CN(Cc1ccc2c(c1)OCO2)C(=O)c1cnsn1)NC1CCCC1	8	0.1
CCCn1nnc(NC(=O)Cc2ccccc2)n1	7	-0.9
CC1=C(C(=O)OCC(F)(F)F)C(c2ccc(OCc3ccccc3)cc2)NC(=O)N1 (stereo unspecified)	.	-2.3
COc1ccccc1CNCCN1CCOCC1	3	-0.4
COc1ccc(N2C(=O)C3CC=CC(C)C3C2=O)cc1 (stereo unspecified)	6	2.2
COC(=O)c1cn(Cc2ccc(Cl)cc2)cc(F)c1=O	.	0.8
CCOc1ccc(-c2c(C#N)c(N)nc(SCC(=O)c3ccc(C)cc3)c2C#N)cc1	.	0.2
O=C(CSc1nccc(-c2cccs2)n1)N1CCc2c([nH]c3ccccc23)C1C(F)(F)F (stereo unspecified)	.	0.2
CC(C)C1NC(=O)CNC1=O (stereo unspecified)	-20	.
N#CCc1ccc(C(=O)c2ccco2)s1	.	-11
O=C(O)COc1ccc(OCc2ccccc2)cc1	6	-1.2
O=c1[nH]c(CN2CCCC2)nc2scc(-c3ccc(Cl)cc3)c12	-24	-14
COc1ccc(-c2nnc(SCC(=O)NCCCc3ccccc3)n2N)cc1	3	.
Cc1cc(S(=O)(=O)N2CCCc3ccccc32)ccc1OCC(N)=O	-7	-0.2
CNCc1ccc(F)cc1	-13	.
Cc1cccc(NC(=O)c2cccc(C(=O)Nc3cccc(C)c3)c2)c1	8	0.5
CC12C=CC(O1)C1C(=O)N(c3ccc(F)c(Cl)c3)C(=O)C12 (stereo unspecified)	-1	2.1
Cn1c(C(Cc2ccccc2)NC(=O)c2ccccc2)nc2ccccc21 (stereo unspecified)	11	4.7
O=C(O)c1ccccc1-n1c(=O)c2cc3c(=O)n(-c4ccccc4C(=O)O)c(=O)c3cc2c1=O	7	18
O=C(O)c1sccc1S(=O)(=O)N1CCN(c2ccc(C(F)(F)F)cn2)CC1	.	-4.3
Cc1cnc(C(=O)Nc2ccc(-n3cnnn3)cc2)cn1	16	.
N#C/C(C(=O)NC1CC1)=c1/s/c(=C/c2ccco2)c(=O)n1-c1ccc(F)cc1	-6	.
CC(C)(C)c1ccc(-c2noc(CNS(=O)(=O)c3ccccc3)n2)cc1	23	.
O=C(NCc1ccco1)c1ccc(-c2cccc(Cl)c2)o1	-32	.
O=C(CCc1nc(-c2ccccc2)no1)NC1CCCC1	8	-0.3
CC1=CS(=O)(=O)CC1	22	-0.6
CC(C)(C)c1ccc(C(=O)Oc2ccccc2CCC(=O)O)cc1	.	1.1
Cn1nnc(NC(=O)COc2ccccc2)n1	5	-1.4
Cc1ccc(F)cc1NC(=O)N1CCCN(c2ccc(C(F)(F)F)cn2)CC1	.	-0.7
CC(C)CCNC(=O)c1c[nH]c2ccc(S(=O)(=O)N3CCC4(CC3)OCCO4)cc2c1=O	1	-1.1
Cc1nn(-c2ccccc2C(=O)O)c(=O)c2ccccc12	8	.
N#Cc1oc2ccccc2c1NC(=O)COC(=O)Cc1cccc(C(F)(F)F)c1	0	.
CSc1ccc(/C=C/C(=O)O)cc1	-15	-1.1
Cn1c(CC2Sc3ccccc3NC2=O)n[nH]c1=S (stereo unspecified)	.	-1.4

Part of the list above, as labelled records:
> CC(C)CCNC(=O)c1c[nH]c2ccc(S(=O)(=O)N3CCC4(CC3)OCCO4)cc2c1=O
- S aureus helic = 1
- MgrA DNA FP = -1.1

> CSc1ccc(/C=C/C(=O)O)cc1
- S aureus helic = -15
- MgrA DNA FP = -1.1

Next section:
Structure	S aureus helic	MgrA DNA FP
Cc1ccc(NC(=O)CSCc2nc3ccc(Cl)cc3n2CCO)cc1C	-13	.
CN(C)C(=O)C1OC(C)(C)OC1C(=O)N(C)C (stereo unspecified)	0	1.2
Cc1cc(NC(=O)COC(=O)c2ccc(S(=O)(=O)N3CCCc4ccccc43)cc2)no1	-3	.
Cc1sc2ncnc(OCC(=O)N3CC(=O)Nc4ccccc43)c2c1C	-6	.
Nc1ccccc1C(=O)NCc1c(F)cccc1Cl	.	-1.5
O=C(O)C(c1ccccc1)N1CCCC1 (stereo unspecified)	18	-4.0
CCOC(=O)C1=C(C)OC2(O)c3ccccc3C(=O)C12O (stereo unspecified)	-1	3.5
Cc1cc(Cl)ccc1OCC(=O)OCC(=O)c1ccc[nH]1	10	.
CC(C)c1ccc(C2=CC(=O)C=CC2=O)cc1	23	.
Cc1cc(C(F)(F)F)nc(SCC(=O)c2ccccc2)n1	11	-1.7
CCOC(=O)C1CCN(CC(O)C(F)(F)F)CC1 (stereo unspecified)	.	0.6
Clc1cncc(Cl)c1N/N=C/C1CC2C=CC1C2 (stereo unspecified)	.	2.4
O=C(Cn1nnc(-c2ccccc2F)n1)N1CCCCC1	0	4.4
Cc1oc(-c2ccccc2)cc1C(=O)Nc1ccccc1	.	-2.6

Of the compounds above, these contain a Cl atom:
Structure	S aureus helic	MgrA DNA FP
O=C(O)c1ccccc1COc1ccccc1Cl	6	-1.4
Cc1c(OCc2ccc(Cl)c(Cl)c2)ccc(C(=O)/C=C/N(C)C)c1O	.	-2.4
CC1=C(OC(=O)c2c(-c3c(Cl)cccc3Cl)noc2C)C(=O)CC1	.	1.0
Cc1cc(Nc2ncc(Cl)cc2Cl)n[nH]1	2	.
N#Cc1c(NC(=O)CN2C(=O)C3CC=C(Cl)CC3C2=O)sc2c1CCC2 (stereo unspecified)	4	.
O=C(COc1ccc(Cl)cc1)Nc1ncc(S(=O)(=O)c2ccc([N+](=O)[O-])cc2)s1	.	3.7
COC(=O)c1cn(Cc2ccc(Cl)cc2)cc(F)c1=O	.	0.8
O=c1[nH]c(CN2CCCC2)nc2scc(-c3ccc(Cl)cc3)c12	-24	-14
CC12C=CC(O1)C1C(=O)N(c3ccc(F)c(Cl)c3)C(=O)C12 (stereo unspecified)	-1	2.1
O=C(NCc1ccco1)c1ccc(-c2cccc(Cl)c2)o1	-32	.
Cc1ccc(NC(=O)CSCc2nc3ccc(Cl)cc3n2CCO)cc1C	-13	.
Nc1ccccc1C(=O)NCc1c(F)cccc1Cl	.	-1.5
Cc1cc(Cl)ccc1OCC(=O)OCC(=O)c1ccc[nH]1	10	.
Clc1cncc(Cl)c1N/N=C/C1CC2C=CC1C2 (stereo unspecified)	.	2.4
